# HSV replic up: increases HSV replication in cells. 220,000 compounds, 0.005% hits. HSV replication augmentation in cells, fold increase. maximum fold increase. AID 1956;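 active means peak rise of 1.5-fold or more in the series; tested in PC3 cells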;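 further: first round at 10 µM; read as green reporter fluorescence; hits show the peak of a series up to 25 µM; 1 = signal of infected wells without compound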
# PKD1 kinase inh: blocks activity of human protein kinase D1; Q15139; PKD1 kinase fluorescence polarization assay; inhibition, %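 (about 10 µM by stock and volumes)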; 200,000 compounds, 0.056% hits; AID 797;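 active means inhibition of 50% or more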;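 further: controls were vehicle for no effect and a reference inhibitor for full effect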
# GALR2 ag: agonists of human galanin receptor 2 (GALR2); O43603; GALR2-expressing cells, agonist activation read-out; activation, %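 (tested at 5 µM)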; 140,000 compounds, 0.48% hits;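 active means above mean plus 3 SD of all compounds, about 5% in these data, not always enough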;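 further: 0% = vehicle buffer wells and 100% = reference agonist at full effect; tested in CHO reporter cells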
# Target sequence (O43603 whole entry, looked up): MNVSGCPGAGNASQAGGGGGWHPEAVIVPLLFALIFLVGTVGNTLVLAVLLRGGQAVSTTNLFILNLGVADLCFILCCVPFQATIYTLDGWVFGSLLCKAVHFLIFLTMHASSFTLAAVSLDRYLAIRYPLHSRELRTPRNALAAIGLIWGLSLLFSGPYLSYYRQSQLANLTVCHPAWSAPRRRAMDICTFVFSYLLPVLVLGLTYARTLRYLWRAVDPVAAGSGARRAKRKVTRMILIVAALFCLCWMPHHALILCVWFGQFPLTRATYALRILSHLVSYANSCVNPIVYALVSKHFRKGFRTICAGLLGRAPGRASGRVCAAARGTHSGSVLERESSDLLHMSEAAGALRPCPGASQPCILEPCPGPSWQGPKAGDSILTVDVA
# INS promoter inh: TRM-6 insulin promoter activity inhibition. TRM-6 cells (human fetal islet line), insulin promoter-eGFP reporter, imaging; reporter expression induced with tamoxifen. inhibition, % at 2 µM. 130,000 compounds, 0.9% hits;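 active means inhibition above the mean plus 3 SD, with well images judged a real hit on visual review, cut at about 60% in these data, passing the limit was not always enough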
# RGS16-Gao: RGS16-Galphao interaction regulator (human) | bead-based flow cytometry RGS16-Galphao binding, fluorescence; actives lie on both sides | O15492+P09471 | binding response (% of control), % at 10 µM | 220,000 compounds, 0.38% hits;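 active means below 25% or above 175%, edge rows of some plates excepted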;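 further: Galphao activated by GDP with aluminum fluoride before binding; 100% = wells without compound and 0% = beads without RGS; some results beyond the cut were filed as inactive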
# Target sequence (O15492 whole entry, looked up): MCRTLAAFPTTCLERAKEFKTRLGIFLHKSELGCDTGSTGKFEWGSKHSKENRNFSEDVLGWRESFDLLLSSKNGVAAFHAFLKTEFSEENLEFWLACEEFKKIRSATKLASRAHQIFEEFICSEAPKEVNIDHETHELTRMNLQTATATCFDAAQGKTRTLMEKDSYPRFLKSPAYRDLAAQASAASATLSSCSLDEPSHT
# Target sequence (P09471 whole entry, looked up): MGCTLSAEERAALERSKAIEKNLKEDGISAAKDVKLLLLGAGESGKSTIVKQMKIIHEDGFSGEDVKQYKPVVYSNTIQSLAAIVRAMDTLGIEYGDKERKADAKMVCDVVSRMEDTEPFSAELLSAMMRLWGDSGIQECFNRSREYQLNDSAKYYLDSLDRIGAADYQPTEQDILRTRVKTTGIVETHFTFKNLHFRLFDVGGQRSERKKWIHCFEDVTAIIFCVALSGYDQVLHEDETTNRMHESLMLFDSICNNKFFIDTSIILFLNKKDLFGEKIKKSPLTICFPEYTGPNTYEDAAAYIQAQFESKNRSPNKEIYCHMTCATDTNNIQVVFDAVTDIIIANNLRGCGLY
# INS promoter inh cell count: second read-out of INS promoter inh, no call of its own (marks repeat the call); normalized cell count, %; measured here: cell count, toxicity; reference of the scale not given here;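 cells exposed to compound for 48 h; stained nuclei by imaging scaled within each plate; lower means fewer cells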
# HSV replic up primary fold: recorded beside HSV replic up, whose call it bears; fold increase; compound at 10 µM; measured here: primary screen fold increase 10 uM; tested in PC3 cells;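 GFP signal in the first replicate; 1 = infected wells without compound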
# The depositor's hits bear a star; i = inactive; · = no result given.
# Order of values – HSV replic up	HSV replic up primary fold	PKD1 kinase inh	GALR2 ag	INS promoter inh	INS promoter inh cell count	RGS16-Gao
O=C(C(Cc1ccccc1)n1cccc1)N1CCN(c2ncccn2)CC1 (centres undefined)
→ i	0.95	7	-1.6	·	·	103
S=C(Nc1ccc(Cl)cc1Cl)N1CCCCC1
→ i	0.93	-6	-1.4	0	103	103
S=c1[nH]nc(CSc2nc3ccccc3s2)o1
→ i	1.1	-8	-0.4	·	·	5
Nc1nn(-c2ccccc2)nc1C(=O)OCc1ccccc1F
→ ·	·	-3	·	-8	83	97
O=C(NCCN1CCNCC1)c1ccccn1
→ i	0.93	-3	-1.9	-36	197	105
CCOc1ccc(/C=N/NC(=O)c2ccc(CSc3nc4ccccc4[nH]3)cc2)cc1
→ i	0.76	-6	-1.5	10	106	62
CCOc1cc(S(=O)(=O)n2ccnc2)ccc1Br
→ i	0.89	-5	·	·	·	96
Cn1cnnc1SCC(=O)Nc1cccc(C(=O)O)c1
→ i	0.92	3	-0.5	43	102	101
Cc1cccc(C)c1NC(=S)NCCc1ccc(O)c(O)c1
→ i	0.89	-7	·	-15	45	109
CCCCOc1ccc(Nc2nc(C)cc(C)c2C#N)cc1
→ i	1	-4	-3.0	3	90	100
COC(=O)c1ccc(C)c(NC(=O)CN(c2ccc3c(c2)OCO3)S(C)(=O)=O)c1
→ i	0.9	-6	-0.7	8	120	103
OCCNc1nc(N2CCOCC2)nc(N2CCOCC2)n1
→ i	1	-2	·	·	·	112
CC1CCCCN1S(=O)(=O)c1ccc(NC(=O)CSc2nnnn2C)cc1 (centres undefined)
→ i	0.99	5	-0.7	18	106	103
Fc1ccc(-c2cc(C(F)(F)C(F)F)[nH]n2)cc1
→ i	0.91	·	·	·	·	164
c1ccc2c(c1)nnn2Cc1nnc2sc(-c3ccncc3)nn12
→ i	1.4	-4	-3.0	27	78	99
Cc1cccc(OCCC(=O)N(C)CC(=O)Nc2cccc3ccccc23)c1
→ i	1	-10	-0.2	-18	106	111
CN(C)CCCN(C(=O)c1ccc(Br)s1)c1nc2cc3c(cc2s1)OCO3
→ i	0.85	1	·	25	93	98
O=C(N1CCN(c2ccccc2)CC1)C1(c2cccs2)CCOCC1
→ i	1.1	12	1.6	·	·	102
C#CCOCCOCCOCCNc1nc(N2CCN(C(=O)[C@H](Cc3ccc(O)cc3)n3cc([C@@H](N)CC(C)C)nn3)CC2)nc(N2CCN(C(=O)[C@H](Cc3ccc(O)cc3)n3cc([C@@H](N)CC(C)C)nn3)CC2)n1
→ ·	·	2	·	·	·	103
Cn1nc(N)c2c(-c3ccccc3)c(C#N)c(N)nc21
→ i	0.84	0	0.3	11	114	99
CCCCNC(=O)CN(c1cccc(Br)c1)S(C)(=O)=O
→ i	0.89	3	-1.3	48	97	106
c1coc(-c2ccnc3nc(-n4cccc4)nn23)c1
→ i	0.91	4	·	21	123	89
COc1cccc(OC)c1OCCCCN1CCC(Cc2ccccc2)CC1
→ i	0.84	-1	·	·	·	100
Cc1cc(C(=O)COC(=O)c2ccc[nH]c2=O)c(C)n1C
→ i	1	-7	-0.7	32	82	94
O=C(CSc1nc2cc([N+](=O)[O-])ccc2n1-c1ccc(F)cc1)NC1CCS(=O)(=O)C1 (centres undefined)
→ i	1	-7	-1.4	13	92	92
Cc1nc2ccccn2c1P(=O)(N1CCCCC1)N1CCCCC1
→ i	1.1	-12	-0.9	21	112	172
COc1cccc(NC(=O)COC(=O)c2c(F)cccc2Cl)c1
→ i	1	-1	·	·	·	100
CC1CCCC(C)N1S(=O)(=O)c1ccc(S(=O)(=O)N2CCOCC2)cc1 (centres undefined)
→ i	0.97	·	·	·	·	100
COc1ccc(OC)c(C2C(C(=O)O)c3ccccc3C(=O)N2C)c1 (centres undefined)
→ i	0.95	-3	-4.3	·	·	103
O=C(NCC1CCCO1)c1cc2n(n1)C(C(F)(F)F)CC(c1ccc(Br)cc1)N2 (centres undefined)
→ i	0.84	5	-0.9	21	100	102
O=C(CS(=O)CC(=O)N(c1ccccc1)C(C(=O)NC1CCCCC1)c1ccco1)Nc1ccc(F)cc1 (centres undefined)
→ i	0.85	-1	-0.8	-37	88	106
Cc1cc2ncn(-c3ncnc4scc(-c5ccccc5)c34)c2cc1C
→ ·	·	-6	-2.5	-52	154	103
O=C1COc2ccc(N3C(=O)c4ccccc4C3=O)cc2N1
→ i	0.98	5	·	·	·	99
C=CCn1c(-c2cccn(Cc3ccccc3)c2=O)n[nH]c1=S
→ i	0.79	-17	-1.9	25	102	102
COc1ccc(NC(=O)c2cccnc2N2CCOCC2)cc1
→ i	1.1	-3	·	-16	118	100
COCc1c(Br)c(C)nc(OCC(=O)N/N=C/c2ccco2)c1C#N
→ i	1	-1	·	47	72	103
O=C(Nc1ccc(-c2cn3c(n2)SCC3)cc1)c1ccco1
→ i	0.96	·	·	·	·	105
C=CCc1ccccc1OCC(O)CN1CCN(c2ccccc2OC)CC1 (centres undefined)
→ i	1	4	-0.8	-45	118	99
c1ccc(-n2nnnc2Sc2ncnc3sc4c(c23)CCCC4)cc1
→ i	0.95	-2	-0.8	25	127	121
CC1(C)Cc2ccccc2-c2nnc(C(F)(F)F)n21
→ i	1	6	-0.3	18	91	107

# Single records (already shown). Values in the order: HSV replic up | HSV replic up primary fold | PKD1 kinase inh | GALR2 ag | INS promoter inh | INS promoter inh cell count | RGS16-Gao
# C=CCn1c(-c2cccn(Cc3ccccc3)c2=O)n[nH]c1=S is listed with i | 0.79 | -17 | -1.9 | 25 | 102 | 102
# COCc1c(Br)c(C)nc(OCC(=O)N/N=C/c2ccco2)c1C#N is listed with i | 1 | -1 | · | 47 | 72 | 103
# c1ccc(-n2nnnc2Sc2ncnc3sc4c(c23)CCCC4)cc1 is listed with i | 0.95 | -2 | -0.8 | 25 | 127 | 121
# Cc1cc2ncn(-c3ncnc4scc(-c5ccccc5)c34)c2cc1C is listed with · | · | -6 | -2.5 | -52 | 154 | 103
# O=C(CS(=O)CC(=O)N(c1ccccc1)C(C(=O)NC1CCCCC1)c1ccco1)Nc1ccc(F)cc1 (centres undefined) is listed with i | 0.85 | -1 | -0.8 | -37 | 88 | 106

# Additional records
# Order of values – HSV replic up	HSV replic up primary fold	PKD1 kinase inh	GALR2 ag	INS promoter inh	INS promoter inh cell count	RGS16-Gao
O=C(CCCn1c(=S)[nH]c2cc3c(cc2c1=O)OCO3)NCc1ccco1
→ i	1	2	·	-30	26	101
Cc1cccc(-c2nsc(SCC(=O)N3CCCC3)n2)c1
→ i	0.86	0	3.5	-31	92	99
Cc1ccc(C)c(Cn2c(=O)n(CCC(=O)NCc3ccco3)c(=O)c3sccc32)c1
→ i	1.1	4	-1.8	41	115	89
O=C(NNC(=S)NCc1ccco1)c1cccs1
→ i	1	-2	-1.4	·	·	57
COc1ccc(Cn2c(=O)sc3ccccc32)cc1OC
→ i	0.9	-11	-1.6	·	·	96
COc1ccc(CNCc2cn(-c3cccc(F)c3)nc2-c2ccc(C)o2)cc1
→ i	1	-2	·	·	·	105
Cc1sc(NC(=O)CSc2nnc(C(C)C)n2C)c(C#N)c1C
→ i	0.89	-1	-1.3	23	80	98
O=C(CN1c2ccccc2Sc2ccccc21)N/N=C/c1ccc(Cl)cc1Cl
→ i	0.91	·	·	·	·	102
Cc1noc(C)c1C(=O)Nc1c(F)cc(F)cc1Br
→ i	0.93	-6	-2.0	-15	121	106
Cc1cc(CO)nn1-c1ccc([N+](=O)[O-])cc1
→ i	1	·	·	·	·	97
CN(C(=S)NC(=O)c1ccccc1)c1c(N)n(Cc2ccccc2)c(=O)[nH]c1=O
→ i	0.92	·	·	·	·	93
Cc1c(N2C(=O)CSC2=S)c(=O)n(-c2ccccc2)n1C
→ i	0.96	-1	·	38	92	101
Cc1ccccc1C([O-])=Nc1ccc[n+](-c2nc3ccccc3nc2NS(=O)(=O)c2ccccc2)c1
→ i	1.1	·	·	·	·	101
CCS(=O)(=O)N1CCCC(C(=O)NC2CCC(C)CC2)C1 (centres undefined)
→ i	1.1	4	-0.4	38	58	99
CCOC(=O)Nc1ccc2c(c1)N(C(=O)CCN1CCN3CCCC3C1)c1ccccc1CC2 (centres undefined)
→ ·	·	5	-1.4	11	141	99
CC12CC(c3ccccc3O1)N(C(=O)c1ccc(Br)o1)C(=O)N2c1ccccc1 (centres undefined)
→ i	0.99	-12	-4.1	4	133	102
O=C(Nc1ccccc1Cl)Oc1ccc(-c2ccccc2)cc1
→ i	1	·	·	·	·	101
COc1ccc(N2CCN(c3ncccn3)CC2)cc1
→ i	0.99	-9	-2.6	8	105	104
O=Nc1c(O)[nH]c2ccc(Cl)cc12
→ i	1.1	-1	·	-18	108	104
CC(C)(C)OC(=O)N1CC(O)CC1C(=O)OCC(=O)c1ccc(-c2ccccc2)cc1 (centres undefined)
→ i	0.88	0	·	29	105	101
O=C(Cc1cccs1)NC(c1ccccc1)c1ccccc1
→ i	0.96	-1	·	·	·	94
Cc1ccc(C)c(NC(=O)CSc2nnc(-c3ccccc3)n2N)c1
→ i	1.1	-12	-0.8	-23	41	428
COc1cccc(Cn2c(-c3nonc3N)nc3ccccc32)c1
→ i	0.8	-14	0.6	-76	21	97
C1CCC2=NCCCN2CC1
→ i	1.1	8	-0.6	16	73	108
COc1ccc(C(=O)COC(=O)[C@H](C)Nc2ccc(C(F)(F)F)cc2[N+](=O)[O-])cc1
→ i	0.91	3	-0.3	-19	49	98
O=C(NCc1csc(-c2cccs2)n1)C1CCCCC1
→ i	0.97	·	·	·	·	96
COc1ccccc1CNC(=O)c1ccoc1C
→ i	0.85	4	-1.9	6	100	101
CCCCNS(=O)(=O)c1ccc2nc(-c3cccnc3)cc(C(=O)NC3CC3)c2c1
→ ·	·	-5	-1.7	2	100	101
Cn1cnnc1SCC(=O)Nc1nc(-c2ccc(F)cc2)cs1
→ i	1	-5	·	27	98	102
c1coc(-c2nnc3n2C2(CCCC2)Cc2ccccc2-3)c1
→ i	0.91	4	-0.6	-18	74	101
O=C(NCCN1CCOCC1)C1CCN(Cc2ccccc2O)CC1
→ i	0.83	1	-0.4	50	92	102
CC1=C(C)CS(=O)N(S(=O)(=O)c2ccc(Cl)cc2)C1 (centres undefined)
→ i	0.95	-5	-3.2	0	138	81
N#Cc1nc(Cc2cccc3ccccc23)oc1N1CCN(c2ccccc2)CC1
→ i	0.89	4	0.2	-22	82	95
O=S(=O)(Nc1ccccn1)c1cnc(Cl)c(Br)c1
→ i	1	-8	-0.3	·	·	102
CCC(=O)Oc1c(C(=O)CC)cc2c(C)cc(=O)oc2c1C
→ i	0.95	3	1.5	-17	120	95
CCOC(=O)C1CCN(C(=O)CCCN2C(=O)c3ccccc3C2=O)CC1
→ i	0.83	-6	3.0	-50	124	88
COc1ccccc1Nc1nc(N)nc(CN2CCN(c3ccccc3)CC2)n1
→ i	0.86	3	0.3	·	·	101
Cc1ccc(-n2nc3c(SCCN4CCOCC4)nnc(C)c3c2C)cc1
→ i	0.8	6	0.1	13	121	100
CC1=CC(C)C(/C=N/N=C(N)N)C(C)C1 (centres undefined)
→ i	0.71	·	·	·	·	58
CCOC(=O)c1cnc(-c2ccccc2)nc1Oc1ccccc1
→ i	0.87	11	-2.5	8	91	98
Cc1cccc(C(=O)N/N=C2/SCC(=O)N2Cc2ccccc2)c1
→ i	0.93	-8	·	·	·	94
CCC1C(C#N)=C(N)OC2=C1C(=O)CC(C)(C)C2 (centres undefined)
→ i	0.83	-17	-2.5	-11	141	117
Cn1cc(CN2CCc3sccc3C2)c(-c2ccccc2F)n1
→ i	0.97	-4	·	·	·	96
CCOC(=O)CSc1nc(C)c(C(=O)OCC)s1
→ i	0.93	5	-1.9	57	124	66
CC(=O)OCCNc1nc(-c2ccccc2)nc2ccccc12
→ i	1	-1	·	·	·	103
CCCn1nnnc1SCC(=O)Nc1sc(C)c(C)c1C#N
→ i	0.97	·	·	·	·	104
Cc1ccc(-c2cc(C(=O)Nc3ccc4c(c3)OCCO4)c3ccccc3n2)cc1
→ i	0.78	-2	-2.2	15	40	99
COc1ccc(/C=C/C(=O)NC2=NCCS2)cc1OC
→ i	0.93	8	·	·	·	98
CCCCC#Cc1ccc(C(=O)NNC(=O)Nc2cc(Cl)cc(Cl)c2)o1
→ i	0.9	·	·	·	·	106
CCOC(=O)c1cn2nc(-c3ccc(OC)cc3)cc2nc1C1CCN(C(=O)OC(C)(C)C)CC1
→ i	0.99	-3	-2.2	0	48	97
CCCn1c(SCC(=O)Nc2ccccc2-c2ccccc2)nnc1-c1ccoc1C
→ i	0.91	-1	-1.4	-36	64	125
CCOc1ccc(NC(=O)C(C)Oc2ccccc2C(=O)Nc2cccc(Cl)c2Cl)cc1 (centres undefined)
→ i	1.1	-5	-3.5	3	45	96

# Screens as filed in PubChem BioAssay.
